Source: PubChem (several laboratories)
WNV protease inh = blocks West Nile virus NS2B-NS3 protease activity; P06935; WNV NS2B-NS3 protease, fluorogenic substrate Ex360/Em465; stronger effect = lower value; z-score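 (tested at a level between 10 and 100 µM)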; 0.18% of 65,000 active;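 active means z-score at -3 or under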;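 further: score is relative to mean and spread of the compound wells of a plate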
Target sequence (P06935 1371-1501 limits assumed): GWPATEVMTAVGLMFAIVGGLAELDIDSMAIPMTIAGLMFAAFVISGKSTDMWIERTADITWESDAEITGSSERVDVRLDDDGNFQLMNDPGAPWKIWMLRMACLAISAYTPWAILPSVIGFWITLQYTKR
Target sequence (P06935 1502-1679 limits assumed): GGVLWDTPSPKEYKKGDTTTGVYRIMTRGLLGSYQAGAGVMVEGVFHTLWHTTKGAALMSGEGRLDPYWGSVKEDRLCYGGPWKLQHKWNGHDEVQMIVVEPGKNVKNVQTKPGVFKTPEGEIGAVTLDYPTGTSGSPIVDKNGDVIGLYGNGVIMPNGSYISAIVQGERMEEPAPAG
MT1-MMP promoter = MT1-MMP gene expression reporter suppression – cell-based, luciferase reporter, luminescence (AID 618) | MT1-MMP promoter luciferase reporter cells, luminescence | calls from a first round at 10 µM; hits with a dose series show EC50 in µM | 0.62% of 87,000 active;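 active means over half of the reporter light lost at 10 µM or EC50 under 50 µM; inactive means the rest and hits that failed the dose series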;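 further: actives suppress MT1-MMP promoter-driven transcription so potencies describe inhibitors; HT1080 fibrosarcoma cells; overnight exposure; toxic or luciferase-blocking compounds were not removed from the actives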
Hsc70 = Hsc70 inhibitors, probe displacement, primary screen, biochemical, fluorescence polarization (AID 568) | Hsc70 fluorescence polarization, probe displacement; higher % means a stronger effect; strong numbers were not always called active | 83,000 tested, under 10 active | one-dose displacement, % at 20 µM; IC50 in µM for titrated hits;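 active means displacement above 50% without optical interference and an IC50 on retest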;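 further: ATPase domain with a fluorescein-tagged ATP probe; 0% = vehicle and 100% = excess ADP; read after one hour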
The depositor's hits bear a star; i = inactive; . = no result given; + = active, no number. These rows are one share of the data. The share of hits here may be higher or lower than overall.

Every second line gives: WNV protease inh, MT1-MMP promoter, Hsc70
> O=C(N1CCOCC1)n1cnc2ccccc21
 : ., i, -1.8%
> Clc1cccc(Oc2cnns2)c1Cl
 : ., i, 2.1%
> COc1ccc(OC)c(-n2cnc3cc(C(=O)O)ccc32)c1
 : 0.76, i, 7.2%
> Clc1ccc(Cl)c(-c2nn3c(COc4ccccc4)nnc3s2)c1
 : -0.36, i, 3.0%
> Cc1ccccc1Cc1c(C)nc2c(C(=O)NCc3ccco3)cnn2c1C
 : 1.1, i, -15%
> COC(=O)C1=CN(CC2CCCO2)C=C(C(=O)OC)C1c1ccsc1 (stereo not given)
 : 1.4, i, 3.4%
> O=C(O)c1cccc(-n2nnnc2SCc2ccccn2)c1
 : -0.7, i, -2.3%
> Cc1cc(C)cc(NC(=O)c2cc(S(=O)(=O)NCc3ccco3)ccc2F)c1
 : 0.87, i, -8.4%
> CCN(CC)S(=O)(=O)c1cccc(C(=O)NC(Cc2c[nH]c3ccccc23)c2nnc3n2CCCCC3)c1 (stereo not given)
 : ., i, 0.5%
> COc1ccc(Cc2nc(-c3ccc(Br)cc3)no2)cc1
 : -1, i, -7.8%
> Cc1ccc2[nH]c(=O)c(CN(CCc3ccccc3)C(=O)N3CCOCC3)cc2c1
 : 1.6, i, 2.2%
> COc1cccc2sc(N(C)c3ccccc3)nc12
 : 1.8, i, -1.6%
> Cc1ccc(OCC(=O)Nn2c(C)nc3ccccc3c2=O)c(C(C)C)c1
 : ., i, -1.4%
> O=C1C2CCCN2C(c2ccc(F)cc2)N1c1nccs1 (stereo not given)
 : -0.99, i, -4.2%
> CCOC(=O)c1sc(N(Cc2ccccc2)C(=O)CSc2ncn[nH]2)nc1C
 : ., i, 2.6%
> COc1cc(C2CC(=O)c3c([nH]c(C(=O)OCCOC(C)C)c3C)C2)cc(OC)c1OC (stereo not given)
 : -0.74, i, 6.8%
> O=C1Nc2ccccc2C1(O)Cc1ccncc1 (stereo not given)
 : -1.9, i, -2.0%
> Cn1c(=O)c2c(nc(NCCCN3CCOCC3)n2Cc2ccc(Cl)cc2)n(C)c1=O
 : 0.06, i, -4.3%
> CN1CCN(C(=O)Nc2cccc3ccccc23)CC1
 : -1.5, i, -2.4%
> COCCn1c(SCc2csc(-c3ccccc3)n2)nc2ccccc21
 : -0.51, i, -3.8%
> O=C(CSc1nnc2c3c4c(sc3ncn12)CCCC4)NCc1ccco1
 : -0.79, i, -1.0%
> CCOc1ccc(NCc2nnc(SCC(=O)Nc3cc(C)on3)n2-c2ccc(OC)cc2)cc1
 : 0.19, i, 4.0%
> Cc1ccc2nc(-c3ccccc3)cn2c1
 : 0.38, +, 5.7%
> O=c1oc2c(CN3CCCCC3)c(O)ccc2cc1-c1nc2ccccc2[nH]1
 : 1.5, i, 133%
> CCCNC(=O)CS(=O)(=O)Cc1nc(-c2cccc(OC)c2)oc1C
 : 1.5, i, 2.6%
> O=C(Nc1cccnc1)Nc1ccccc1Cl
 : 0.03, i, -6.4%
> CCCCN(CC)C(=O)c1n[nH]c(=O)c2ccccc12
 : ., i, 0.5%
> COCCNC(=O)CN1CCC(n2c(C)nc3cc(C(F)(F)F)ccc32)CC1
 : 0.38, i, -4.0%
> O=C(NCn1ccc(=O)[nH]c1=S)c1ccccc1
 : -0.36, i, 0.1%
> O=C1C(C=Nc2ccccc2O)=C(O)c2ccccc21
 : 0.29, i, 2.3%

6 compounds from above, reduced to MT1-MMP promoter and Hsc70.
smiles | MT1-MMP promoter | Hsc70
CCCNC(=O)CS(=O)(=O)Cc1nc(-c2cccc(OC)c2)oc1C | i | 2.6%
O=C(Nc1cccnc1)Nc1ccccc1Cl | i | -6.4%
CCCCN(CC)C(=O)c1n[nH]c(=O)c2ccccc12 | i | 0.5%
COCCNC(=O)CN1CCC(n2c(C)nc3cc(C(F)(F)F)ccc32)CC1 | i | -4.0%
O=C(NCn1ccc(=O)[nH]c1=S)c1ccccc1 | i | 0.1%
O=C1C(C=Nc2ccccc2O)=C(O)c2ccccc21 | i | 2.3%

(more compounds)
Every second line gives: WNV protease inh, MT1-MMP promoter, Hsc70
> O=C(NC1CCCC1)C1CC(c2ccc(F)cc2)=NO1 (stereo not given)
 : -0.8, i, -8.0%
> Cc1c(NC(=O)C(C)OC(=O)CNC(=O)c2ccc(C(C)(C)C)cc2)c(=O)n(-c2ccccc2)n1C (stereo not given)
 : ., i, 2.1%
> CC(C)CC1CC(=O)OC1(C)C(=O)CSc1nc2ccccc2s1 (stereo not given)
 : ., i, -2.2%
> CC1CC(C)CN(CCCNC(=O)C2CCC(=O)N2C2CCCC2)C1 (stereo not given)
 : 0.16, i, 8.2%
> CSCCC(NC(=O)c1ccco1)C(=O)OC(C)C(=O)NC(=O)NC1CCCCC1 (stereo not given)
 : -1.1, i, -0.4%
> COc1cccc(C2NC(=O)NC(C)=C2C(=O)OCCSC)c1OC (stereo not given)
 : -0.4, i, -2.6%
> COc1ccc(S(=O)(=O)N2CCCC(C(=O)Nc3ccc4c(c3)OCCO4)C2)cc1 (stereo not given)
 : ., i, 6.0%
> O=C(COCCOCC(=O)N(c1ccccn1)C1CCCCC1)N(c1ccccn1)C1CCCCC1
 : ., i, 0.5%
> COC(=O)c1[nH]c2ccc(C)cc2c1NC(=O)CN1CCN(c2ccccc2)CC1
 : -1.1, i, 2.1%
> COc1ccc(Cl)cc1N(CC(=O)Nc1ccccc1C(=O)NCc1ccco1)S(C)(=O)=O
 : -0.91, i, -1.6%
> Clc1ccc(Cc2nn3c(Cn4nnc5ccccc54)nnc3s2)cc1
 : -0.57, i, 1.8%
> COc1cccc(-c2nc(CS(=O)CC(=O)NCc3ccccc3Cl)c(C)o2)c1 (stereo not given)
 : -0.13, i, -4.8%
> Cc1ccccc1OCCCCCn1ccnc1
 : -0.66, i, 3.0%
> COc1cc2[nH]c(=S)n(Cc3ccc(C)o3)c(=O)c2cc1OC
 : -0.89, i, -3.0%
> COc1ccc(NC(=O)N2CCCC2C(=O)NCc2ccc(F)cc2)cc1 (stereo not given)
 : ., i, -7.1%
> O=c1oc2ccccc2c(Nc2ccc3ccccc3c2)c1[N+](=O)[O-]
 : ., i, 1.5%
> O=C(Cn1ncc2ccccc21)N1CCc2ccccc21
 : 0.12, i, 8.7%
> Cc1cccc(C(=O)NC2CC(C)(C)NC(C)(C)C2)c1
 : 0.28, i, -1.6%
> CCOC(=O)N1CCC(NC(=O)c2oc3c(c2C)-c2[nH]ncc2CC3)CC1
 : ., i, 5.1%
> Cc1nn(Cc2ccc(C(=O)Nc3ccccc3C(F)(F)F)o2)c(C)c1Br
 : ., i, 1.3%
> CC(=O)Nc1ccc(OC(=O)c2cccnc2)cc1
 : 1.3, i, 6.9%
> O=C(c1ccc(Cn2c(=O)[nH]c3ccccc3c2=O)cc1)N1CCN(c2ccc(Cl)cc2)CC1
 : 0.08, i, 3.5%
> Cc1ccc2cc3cc(C(=O)N4CCN(C(=O)c5ccco5)CC4)sc3nc2c1
 : -1.3, i, -2.2%
> CC(=O)Nc1ccc(N2CCN(Cc3ccccc3F)CC2)cc1
 : -0.42, i, 3.8%
> Oc1ccc2[nH]ccc2c1
 : 0.5, i, 0.5%
> CCOC(=O)CCn1nc(-c2ccc(Cl)cc2)cc1N
 : -0.04, i, -0.5%
> CCCCc1nnc(NC(=O)C=C(C)C)s1
 : -0.35, i, 3.9%
> CC(=O)N(C)c1ccc(NC(=O)c2ccco2)cc1
 : 0.65, i, 2.0%
> CS(=O)(=O)NCCC1=CCCCC1
 : -0.17, i, -3.6%
> CCOc1ccccc1OCCCC(=O)NC1=NCCS1
 : 0.14, i, 0.6%
> CC1C(=O)CCN(C(C)(C)C)C1C (stereo not given)
 : ., i, 1.9%
> O=C(NCC1COc2ccccc2O1)C1C2C=CC3(CN(Cc4ccccc4Cl)C(=O)C13)O2 (stereo not given)
 : 0.1, i, -1.7%
> CCOc1ccc(C2C=C(c3ccccc3)Nc3nnnn32)cc1 (stereo not given)
 : -0.9, i, -0.4%
> O=C(NCc1ccccc1)c1cc(-c2cccc(O)c2)on1
 : -0.35, i, -6.0%
> CC(C)CCn1c(N2CCOCC2)nc2c1c(=O)n(CC(N)=O)c(=O)n2C
 : 0.58, i, 4.1%
> O=C1c2ccccc2-c2c1nc1c([n+]2[O-])CCCC1
 : -0.27, i, -8.4%
> CCOC(=O)C1CCCN(C(=O)CN2C(=O)c3ccccc3C2=O)C1 (stereo not given)
 : 1.6, i, 3.9%
> Cn1c(Cn2cnc(Cl)c2Cl)nc2ccccc21
 : 0.76, i, 4.2%
> Cc1nn(C)c(C)c1S(=O)(=O)N1CCC(C(=O)NC2CCCCC2)CC1
 : -0.69, i, 0.3%
> Cc1cc(C)n(-c2ccc(C(=O)Nc3ccccn3)cc2)n1
 : -0.8, i, 1.0%
> O=C(Cn1nnc(-c2ccccc2)n1)N=Nc1c(O)[nH]c2ccccc12
 : ., i, 2.5%
> CCOC(=O)N1CCC(NC(=O)c2cccn3c(=O)c4cc(Br)ccc4nc23)CC1
 : -0.71, i, -8.5%
> O=C(Nc1sccc1C(=O)NCc1ccco1)c1cccnc1
 : -0.49, i, -14%
> O=C1OC(N2CCN(Cc3ccccc3)CC2)c2ccccc21 (stereo not given)
 : 1.6, i, 8.2%
> Cc1cccc(OCCCC(=O)Nc2ccc3c(c2)OCO3)c1
 : -0.6, i, -2.6%
> CC(=O)NC(CCS(C)(=O)=O)C(=O)Nc1cccc(C(C)=O)c1 (stereo not given)
 : 0.67, i, 0.3%
> Cc1onc(-c2ccccc2Cl)c1C(=O)NCC1CCCO1 (stereo not given)
 : 1.9, i, 3.4%
> CCOc1cc(-c2cc(-c3ccc(N)cc3)nc(N)c2C#N)ccc1O
 : -0.36, i, -19%
> Oc1c(CN2CCOCC2)cc(COCc2ccccc2)c2cccnc12
 : 0.4, i, -1.2%
> CC(C)Oc1ccccc1C1CC(=O)Nc2cc3c(cc21)OCCO3 (stereo not given)
 : 0.67, i, -1.9%
> c1ccc(-c2csc(Nc3ccc4c(c3)OCCO4)n2)cc1
 : ., i, -1.3%
> CCn1c(COc2ccc(C)cc2)nnc1SCC(=O)Nc1ccc(S(N)(=O)=O)cc1
 : 0.9, i, 2.0%
> CCCCn1c(SCC(=O)N2CCCC2)nc2c1c(=O)n(C)c(=O)n2C
 : 1.2, i, -3.5%
> COc1ccc(C)cc1NC(=O)c1cc2c(CO)cnc(C)c2oc1=N
 : -0.88, i, 2.9%
> CCOc1ccc(N(CC(=O)NCc2ccco2)S(C)(=O)=O)cc1
 : -0.04, i, 1.2%
> CCOC(=O)c1c(C)oc2c1c(C=NCc1ccccn1)c(O)c1ccccc12
 : -0.00046, i, 53%
> CCCC(=O)Nc1cc(C)c(NC(=O)Cc2ccccc2)cn1
 : -0.39, i, 11%
> CCCCC(CC)C(=O)Nc1ccc(C#N)cc1 (stereo not given)
 : ., i, -1.5%
> O=c1c2cnn(-c3ccc(F)cc3)c2ncn1Cc1ccccc1
 : ., i, -2.5%
> CCCNC1CCS(=O)(=O)C1 (stereo not given)
 : ., i, 0.6%

3 of the compounds above, with each value named:
CCCCc1nnc(NC(=O)C=C(C)C)s1
- WNV protease inh: -0.35
- MT1-MMP promoter: i
- Hsc70: 3.9%
Cc1ccc(OCC(=O)Nn2c(C)nc3ccccc3c2=O)c(C(C)C)c1
- WNV protease inh: .
- MT1-MMP promoter: i
- Hsc70: -1.4%
CC(=O)N(C)c1ccc(NC(=O)c2ccco2)cc1
- WNV protease inh: 0.65
- MT1-MMP promoter: i
- Hsc70: 2.0%

The listing continues.
Every second line gives: WNV protease inh, MT1-MMP promoter, Hsc70
> O=C(CC1COc2ccccc2O1)Nc1ccccn1 (stereo not given)
 : 1.3, i, 5.8%
> O=C(C1CCCCC1)N1CCN(C(=O)C2CCCCC2)CC1
 : 1.4, i, 0.0%
> Cc1ccccc1CNC(=O)c1ccccc1
 : ., i, 3.2%
> Cc1nnc(NC(=O)Cc2ccc(OCc3c(C)noc3C)cc2)s1
 : -0.9, i, 2.4%
> CCOC(=O)CNC(=O)CSc1nc(NCc2ccccc2)nc(N(C)C)n1
 : -0.54, i, -1.7%
> CCCOc1ccc(N)cc1N
 : -0.37, i, 38%
> CC1Cn2c(COc3ccccc3)nnc2S1 (stereo not given)
 : 0.6, i, -5.8%
> CC(=O)NC(CC(C)C)C(=O)NC(Cc1ccccc1)C(N)=O (stereo not given)
 : -0.89, i, 3.9%
> O=C(NCc1cn2ccccc2n1)c1ccccc1
 : 0.11, i, 5.0%
> O=C(CN1C(=O)C2CCCN2c2ncc(Cl)cc21)NCc1ccc2c(c1)OCO2 (stereo not given)
 : -0.43, i, -24%
> Cc1cc(C)n(-c2ccc(C(=O)Nc3ccc(S(=O)(=O)NCc4ccco4)cc3)cc2)n1
 : 0.26, i, 2.2%
> Cc1ccc(S(=O)(=O)N2CN(Cc3ccco3)c3nc4ccccc4nc32)cc1
 : ., i, 1.7%
> CCOC(=O)Cn1c(=N)n(CCOc2ccc3ccccc3c2)c2ccccc21
 : ., i, 5.3%
> CCCc1nc2ccccc2c(=O)n1NC(=O)c1c(O)c2ccccc2[nH]c1=O
 : -1.3, i, -3.3%
> Cc1ccc2cccc(Oc3nnnn3-c3ccccc3)c2n1
 : 0.08, i, -0.5%
> O=C(O)CCc1ccc(-c2ccc(Br)cc2)n1Cc1ccco1
 : -0.27, i, -19%
> Clc1ccc(OCc2nnc(-c3ccccc3Br)o2)cc1
 : -0.13, i, -7.7%
> O=C(CCN1C(=O)COc2ccccc21)NCCCN1CCN(c2ccccc2F)CC1
 : 0.47, i, -6.7%
> Cc1c(C(=O)Nc2ccccc2)oc2c1C(=O)CC(C)(C)C2
 : -1.6, i, -5.3%
> C/C(=C(\C#N)C(=O)NCCN1CCOCC1)N(C)C
 : -0.78, i, -2.9%
